Assay outcomes from PubChem BioAssay.
MT1-MMP act inh – blockers of MT1-MMP proenzyme processing, primary screen, HT1080 RFP-PRO-GFP cells, GFP/RFP fluorescence | GFP/RFP ratio change, % at 20 µM | GFP/RFP ratio fluorescence, overnight; percent of plate control window, DMSO zero | actives 0.061% (n = 360,000) | Matrix metalloproteinase-14 (Homo sapiens), P50281;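 active means GFP/RFP ratio change of at least 30% with cell ATP level not reduced by more than half and red fluorescence within 50% of control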; further: strong numbers were not always called active
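Material: RFP-PRO-GFP reporter HT1080 cells. Dosing: single-point 20 µM compound, 1% DMSO. Controls: DMSO and RFP-L50D-GFP cell wells. Timing: cells overnight before dosing, compound overnight, 37 °C, 5% CO2. Measure: GFP/RFP fluorescence ratio.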
Rce1 inh – yeast Rce1p protease inhibitors, primary screen, biochemical, fluorescence, cell-free homogeneous. actives 0.27% (n = 290,000). calls only. CAAX prenyl protease 2 (Saccharomyces cerevisiae (strain ATCC 204508 / S288c)), Q03530. yeast membranes, quenched prenylated peptide cleavage fluorescence;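 active means fall in fluorescence gain of 50% or more versus controls, with final raw signal at or below 3038400; inconclusive means same 50% fall but final raw signal above 3038400; inactive means fall in fluorescence gain under 50%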;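 further: plate controls were neutral control wells for no effect and wells lacking membranes for full effect; tested at 10 µM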
eIF4H FP inh – human eIF4H binding inhibitors, primary screen, translation initiation inhibitor project, biochemical, uHTS, fluorescence polarization; Eukaryotic translation initiation factor 4H (Homo sapiens), Q15056; inhibition, % at 35 µM; eIF4H fluorescence polarization binding assay; actives 0.94% (n = 290,000); AID 2012, 2009;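 active means 50% or more with normal probe brightness, or confirmed in later tests; inconclusive means above 50% with abnormal brightness, or retests that disagree; inactive means below 50% or failed in later tests; about a fifth of its hits are not listed in these tables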;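 further: calls also rest on retests at 20 µM and on dose response follow-up; 0% = protein and probe with vehicle and 100% = probe without protein; strong numbers were not always called active; many hits fall short of the cut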
Env fusion inh – inhibitors of HIV-1 Env-driven cell-cell fusion, primary screen, HeLa-JRFL effector, CEM21 target cells, luciferase | inhibition, % at 12.3 µM | actives 1.1% (n = 360,000);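 active means mean replicate inhibition score of at least 50 and every replicate individually at or above 50; inconclusive means only one of the two criteria met; inactive means mean below 50 and not all replicates reaching 50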;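 further: 0% = plate neutral controls and 100% = maraviroc near 300 nM; one replicate is shown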
PABP FP inh – PABP poly(A) RNA binding inhibitors, primary screen, biochemical, fluorescence polarization, uHTS. actives 1% (n = 290,000). AID 2014, 2009. inhibition, % at 35 µM;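 active means 50% or more with normal probe brightness, or confirmed in later tests; inconclusive means above 50% with abnormal brightness, or retests that disagree; inactive means below 50% or failed in later tests; about a fifth of its hits are not listed in these tables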;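 further: calls also rest on retests at 20 µM and on dose response follow-up; controls were probe without protein and protein plus probe with vehicle; some compounds called inactive have numbers as strong as hits; many hits fall short of the cut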
Target sequence (P11940 whole entry, looked up): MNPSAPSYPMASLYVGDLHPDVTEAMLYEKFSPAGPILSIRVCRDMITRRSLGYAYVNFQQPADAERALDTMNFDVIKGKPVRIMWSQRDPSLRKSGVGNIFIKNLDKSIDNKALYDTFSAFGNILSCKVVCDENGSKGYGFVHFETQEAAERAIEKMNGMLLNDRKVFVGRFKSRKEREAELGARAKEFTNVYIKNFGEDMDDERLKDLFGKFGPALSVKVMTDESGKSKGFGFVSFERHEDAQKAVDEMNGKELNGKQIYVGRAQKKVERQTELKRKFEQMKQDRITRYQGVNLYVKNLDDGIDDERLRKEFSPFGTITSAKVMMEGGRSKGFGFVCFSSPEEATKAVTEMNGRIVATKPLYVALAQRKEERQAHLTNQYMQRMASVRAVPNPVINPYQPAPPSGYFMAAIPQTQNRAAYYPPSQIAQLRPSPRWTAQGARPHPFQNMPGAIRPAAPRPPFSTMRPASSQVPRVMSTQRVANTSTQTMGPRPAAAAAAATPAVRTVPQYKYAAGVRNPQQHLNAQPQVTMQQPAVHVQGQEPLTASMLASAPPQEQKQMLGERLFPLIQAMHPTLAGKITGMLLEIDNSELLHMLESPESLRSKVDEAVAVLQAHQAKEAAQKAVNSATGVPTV
CSC inhib – cancer stem cell viability inhibitors, primary screen, luminescence | inhibition, % at 7.5 µM | actives 1.1% (n = 300,000) | AID 2717, 2010 | cancer stem cell-like cells viability;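 active means mean at 75% or more and at least half the replicates too; inconclusive means mean and replicates disagree; tested in HMLE shEcad cells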;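 further: 0% = median of negative and 100% = median of positive control wells; the first replicate is given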
Yeast UUG start – modulators of yeast start codon fidelity, primary screen, whole organism, S. cerevisiae, single point, plate reader. S. cerevisiae UUG-firefly luciferase reporter, luminescence/redox ratio. activity score, % at 18.7 µM. actives 0.13% (n = 350,000);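 active means replicate mean at a twofold rise or more, about +100% in these data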;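 further: firefly luciferase made from a UUG start codon reports start codon fidelity; reporter light over untreated wells divided by growth signal over untreated wells; some hits fall short of that in this replicate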
MT1-MMP act inh RFP – second read-out of MT1-MMP act inh, no call of its own (marks repeat the call); RFP signal change, %; measured here: RFP expression control read;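 0 = vehicle wells; hits needed this value within 50% of zero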
* hit, by the source's call; i = inactive; ? = inconclusive; / = no result given. Not all compounds are listed; the hit share may differ from the screen's.

SMILES	MT1-MMP act inh	MT1-MMP act inh RFP	Rce1 inh	eIF4H FP inh	Env fusion inh	PABP FP inh	CSC inhib	Yeast UUG start
CN(C)c1c2ccccc2nc2c(F)c(F)c(F)c(F)c12	-7.5	14.5	i	-1.2	/	6.1	10.8	/
Cc1cccc(C)c1OC(=O)CN(c1ccc(Cl)cc1)S(C)(=O)=O	3.2	-1.8	i	-1.3	39.8	-0.4	-15.6	-7.7
C1CN(c2nc3nonc3nc2N2CCOCC2)CCO1	/	/	i	-7.7	/	1.7	-17.0	/
COc1ccc(OC(C)C(=O)NCCc2nc3ccccc3[nH]2)cc1 (stereo not given)	1.6	0.7	i	5.9	-5.4	8.2	-6.4	-7.1
O=c1[nH]c(/C=C/c2cccnc2)c([N+](=O)[O-])c(=O)[nH]1	0.5	-5.9	i	-2.1	5.9	-9.8	/	/
Cc1cc(NC(=O)CSc2nc(-c3ccccc3)cs2)no1	-2.5	-6.5	i	-3.1	/	-2.0	9.3	1.9
CC1(Oc2cccc(C#N)c2)CCN(Cc2ccc(-c3ccccn3)cc2)C1 (stereo not given)	1.4	2.8	/	/	10.0	/	/	-4.9
COc1ccc(C(=O)N(C)Cc2ccc(C)o2)cc1OC1CCN(C(C)=O)CC1	1.2	2.7	i	-8.6	27.8	5.1	1.0	-2.9
CCN(CC(=O)Nc1c(F)cccc1F)C(=O)CC1CCCCC1	0.3	1.2	/	/	-29.8	/	-14.8	-5.8
CSC[C@H](NC(=O)Cc1c(C)c2cc3c(C)c(C)oc3cc2oc1=O)C(=O)N[C@@H](Cc1ccccc1)C(=O)O	3.7	5.1	i	-5.8	/	22.1	2.6	9.3
CCSc1nc(=S)n(Cc2ccccc2)c(C)c1C(C)=O	35.2*	34.0*	i	6.4	5.7	11.7	3.8	-11.4
COc1cc(NC(=O)C2CCC(CNS(=O)(=O)c3csc(C(N)=O)c3)CC2)cc(OC)c1 (stereo not given)	-10.8	-2.6	i	-1.5	-1.1	5.8	-11.8	-13.9
COc1ccccc1NC(NC(=O)c1cccnc1)C(Cl)(Cl)Cl (stereo not given)	1.4	2.6	i	-4.0	3.8	0.1	-15.7	/
CCCn1cc(CN2CCCC(C(=O)c3ccc4c(c3)OCO4)C2)c(C)n1 (stereo not given)	-0.6	-1.1	i	-2.5	-2.2	-11.4	13.2	-16.6
O=C(CS(=O)(=O)c1ccccc1)NCc1ccccc1	-1.3	0.8	i	3.0	-151.2	5.5	-6.9	-6.8
CC(=O)Nc1cc2nc(C)n(Cc3ccc([N+](=O)[O-])cc3)c2nc1C	-1.7	-1.3	i	7.8	0.6	-2.2	-15.0	-6.2
O=C(COC(=O)/C=C/c1cccc(Cl)c1)Nc1ccccc1-c1ccccc1	/	/	i	-5.2	/	0.0	-2.1	/
Cc1cc(C(=O)NNC(=O)c2nn(C)c(=O)c3ccccc23)c(C)o1	1.2	5.4	i	-7.4	-0.2	3.8	-7.2	8.3
COC(=O)c1cc(COC(=O)COc2ccc(C)c(C)c2)oc1C	0.7	7.0	/	-5.1	1.9	7.0	3.6	-5.8
CCC(CC)C(=O)Nc1c2c(nn1-c1ccc(F)cc1)CS(=O)(=O)C2	-1.4	1.2	i	-5.1	6.1	3.7	-3.3	-12.6
O=C(CN1CCN(c2ccc(F)cc2)CC1)NCc1ccc(Cl)cc1	0.0	-3.5	i	-2.8	13.8	-3.9	9.5	-11.7
Cc1ccc(C(C)C)c(OCC(=O)OCC(=O)NC2CC2)c1	0.3	-0.3	/	/	7.9	/	-0.9	-6.5
CCn1c(CC(=O)Nc2ccccc2F)nnc1SCC(=O)N1CCOCC1	-2.6	0.1	i	-2.9	-29.5	-10.8	-7.4	2.0
O=C(c1cc(-c2ccccc2)nc2ccccc12)N1CCCc2ccccc21	-4.8	-15.6	i	-12.3	/	-0.6	28.5	/
COC(=O)c1c(C)oc2c1cc(NS(=O)(=O)c1cccs1)c1ccccc12	-1.8	4.1	i	0.9	1.7	2.4	49.5	-9.9
O=C(Nc1ccc(CN2CCS(=O)(=O)CC2)cc1)c1ccc(F)cc1	0.7	-2.2	i	3.2	12.3	-2.3	19.0	/
CN(CC(=O)Nc1ccccc1Cl)C(=O)COC(=O)CSc1ccc(F)cc1	2.7	4.2	i	/	-4.8	/	7.3	-0.3
CCc1nnc(NC(=O)CSCc2cc(=O)n3cc(C)sc3n2)s1	-0.5	-0.9	i	-11.1	-3.5	-8.4	-7.6	-13.9
O=C(NCCc1ccccc1)c1ccc(NC(=O)c2cccnc2)cc1	-0.6	-7.5	i	-11.3	-2.3	4.1	/	-13.1
COc1cc2c(C#N)c(N3CCOCC3)nc(N)c2c(N)n1	-8.8	3.5	i	-2.2	/	-9.8	-10.9	-16.5
CC(C)(C)NC(=O)NC(=O)CN1CCC(Cc2ccccc2)CC1	-1.9	0.0	i	-7.7	-0.2	22.6	30.2	/
Nc1nc2c(ncn2[C@@H]2O[C@H](CNCc3cnc(N4CCOCC4)s3)[C@@H](O)[C@H]2O)c(=O)[nH]1	0.9	2.3	/	/	-0.6	/	/	-4.7
O=C(O)CCC(=O)NCC(=O)c1ccc(F)cc1	0.3	2.1	i	-6.0	-3.5	16.2	-1.9	-10.9
N#Cc1ccccc1S(=O)(=O)N1CCN(C(=O)C2COc3ccccc3O2)CC1 (stereo not given)	-1.7	-1.9	/	/	-6.6	/	-26.3	-18.0
COc1cc(/C=N/N2CCN(Cc3ccccc3)CC2)cc(OC)c1OC(C)=O	-0.6	1.5	i	-10.4	-13.3	-9.2	-18.6	-15.0
CN(C)CCn1c(=O)n(Cc2ccccc2)c(=O)c2c3c(sc21)CCCCC3	-1.0	-4.3	i	-9.7	37.9	-4.4	-7.3	-11.4
CCOc1ccc(CCNS(=O)(=O)c2c(C)nc3sccn3c2=O)cc1OCC	5.2	6.2	/	/	-1.7	/	/	-2.4
Cc1nnc(C)n1/N=C/C=C/c1ccccc1	1.4	3.6	i	-1.6	/	-8.2	-7.5	-13.4
CC(C)N(C(=O)CC1ON(C)C(=O)N1c1ccc(Cl)cc1)C(C)C (stereo not given)	0.7	-0.7	i	1.3	17.2	8.6	-10.2	/
CCNC(=S)N1CCN(CCN=CC2=C(O)CC(c3ccco3)CC2=O)CC1 (stereo not given)	2.4	6.0	i	5.1	/	0.0	-2.2	-24.9
CCCS(=O)(=O)C(=C1NCCO1)S(=O)(=O)CCC	1.8	4.5	i	6.7	/	0.1	-19.9	-24.1
CCOC(=O)c1c(C)[nH]c(C(=O)OCC(=O)NCc2ccccc2)c1C	2.7	-3.3	/	/	/	/	9.0	-10.0
CCNC(=O)NC(=O)COC(=O)c1ccccc1SCC(=O)NC(=O)NCC	35.4*	31.3*	i	-4.4	-24.8	2.5	17.7	-18.3
O=C(Nc1ccccc1Cl)c1ccc2c(c1)N(Cc1ccc(F)cc1)C(=O)CS2=O (stereo not given)	-1.0	4.5	i	1.4	-44.7	38.3	-21.5	2.8
O=C(CN1C(=O)NC2(CCCc3ccccc32)C1=O)c1ccc(Br)cc1 (stereo not given)	-1.3	1.6	i	/	6.1	/	-8.1	-17.3
N=c1c(C(=O)NC2CCCC2)cc2c(=O)n3ccccc3nc2n1C1CCCC1	-0.5	-2.3	i	-2.4	4.0	-1.1	-0.9	-2.7
CCOC(=O)[C@@H]1[C@H]2COc3cc(OC)ccc3[C@@H]2N2C(=O)N(c3ccc(C)cc3)C(=O)[C@]12C	-1.3	-3.6	i	/	-5.3	/	-21.6	-18.7
O=C1COc2ccc3ccccc3c21	-4.3	7.0	i	-8.9	-17.9	-9.2	-9.9	-8.6
Cn1c(NC2CCCCC2)cc(=O)n(C)c1=O	-1.2	0.0	i	-7.9	4.4	6.5	-12.1	-9.6
CC1(C)OC(c2ccccc2)=C/C(=C/C=C2C(=O)c3ccccc3C2=O)O1	-12.9	66.5	i	?	-46.0	-1.5	38.9	/
O=C(c1ccc(Cl)c(S(=O)(=O)N2CCOCC2)c1)N1CCN(c2ccccn2)CC1	-5.8	-1.4	/	/	/	/	-10.6	-20.6
COc1ccc(/C=N/NC(=S)Nc2cccc(C(=O)O)c2)cc1OC	-2.8	-1.4	i	-12.0	0.0	-20.4	-5.3	/
C/C(=N\Nc1nccnc1Cl)c1ccc([N+](=O)[O-])cc1	0.6	-1.1	i	-4.0	/	4.8	-6.0	/
CC(=O)NCCn1c(SCc2cc(F)ccc2F)nc2ccccc2c1=O	-2.1	0.6	i	-2.8	0.9	11.0	13.1	-14.4
CCCOC(=O)Nc1ccccc1C(N)=O	6.0	2.2	i	-4.2	/	-5.1	-4.2	-13.7
COc1ccccc1C(=O)N1CCN(C(=O)COc2cccc(C)c2)CC1	-2.2	-1.9	i	-10.7	/	0.5	-0.5	2.1
CC1CCc2nn(CC(=O)NCc3ccc(F)cc3)cc2C1 (stereo not given)	3.1	2.9	i	-5.0	9.1	5.8	/	-8.6
CC(C)(C)C(=O)Nc1ccc(-c2nnc3n2CCCCC3)cc1	0.7	3.0	i	1.3	-49.3	11.1	-17.0	-13.6
O=C(Nc1cccc(C(=O)N2CCCCC2)c1)C1CCCCC1	4.2	5.2	/	/	-9.7	/	/	-5.8
O=[N+]([O-])c1ccc(NN=Cc2ccc(O)cc2O)nc1	21.8	-7.7	/	/	-42.5	/	/	-2.1
Additional compounds follow:
SMILES	MT1-MMP act inh	MT1-MMP act inh RFP	Rce1 inh	eIF4H FP inh	Env fusion inh	PABP FP inh	CSC inhib	Yeast UUG start
NC(=O)c1ccsc1NC(=O)COC(=O)Cc1c[nH]c2ccccc12	0.1	-14.3	i	/	/	/	-3.2	-17.0
COc1ccc(C(CNC(=O)c2cccc(NS(=O)(=O)c3ccc(C)c(F)c3)c2)N2CCCC2)cc1 (stereo not given)	-3.5	-0.5	i	/	-23.5	/	2.1	-1.9
COc1ccc2nc(NC(=O)c3ccc(NS(=O)(=O)c4cccs4)cc3)sc2c1	8.4	-1.7	i	-8.7	-21.0	-2.8	47.1	-11.8
CCOc1ccccc1N/C=C/C(=O)C(C)(C)C	1.0	1.8	i	-4.2	-44.9	0.7	-3.3	-19.4
COc1cc(/C=C/c2nc3ccc([N+](=O)[O-])cc3s2)ccc1OCC(=O)O	/	/	i	-9.2	/	-0.7	3.3	/
COc1cccc(C(=O)NCc2ccco2)c1	-0.8	1.7	i	-1.5	0.8	6.5	/	-8.2
COc1ccc(OC)c(Cc2nnc(CCC(=O)NCc3ccsc3)o2)c1	1.0	3.9	/	-0.7	-1.8	6.3	-14.9	/

Exported with values under each structure: entries from further up
Fields – MT1-MMP act inh, MT1-MMP act inh RFP, Rce1 inh, eIF4H FP inh, Env fusion inh, PABP FP inh, CSC inhib, Yeast UUG start
- NC(=O)c1ccsc1NC(=O)COC(=O)Cc1c[nH]c2ccccc12
→ 0.1, -14.3, i, /, /, /, -3.2, -17.0
- COc1ccc(C(CNC(=O)c2cccc(NS(=O)(=O)c3ccc(C)c(F)c3)c2)N2CCCC2)cc1 (stereo not given)
→ -3.5, -0.5, i, /, -23.5, /, 2.1, -1.9
- COc1ccc2nc(NC(=O)c3ccc(NS(=O)(=O)c4cccs4)cc3)sc2c1
→ 8.4, -1.7, i, -8.7, -21.0, -2.8, 47.1, -11.8
- CCOc1ccccc1N/C=C/C(=O)C(C)(C)C
→ 1.0, 1.8, i, -4.2, -44.9, 0.7, -3.3, -19.4
